Source: PubChem (Broad Institute)
YB-1 expression = inhibitors of YB-1 gene expression, primary screen, cell-based, fluorescence; U2OS, qRT-PCR YB-1 vs CDIP delta delta Cp, 16 h; hits give high values; zero = DMSO, each unit about twofold; delta delta Cp (YB-1 minus CDIP) (test concentration not listed); hit rate 0.37% among 30,000; AID 434959, 2010;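 active = delta delta Cp rounded down to an integer at or above 3, about 3 SD of DMSO wells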;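 note: higher means less YB-1 transcript or more CDIP transcript relative to DMSO; stock transfer was 100 nL into about 100 µL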
Shh pathway inh = Hedgehog pathway signaling inhibitors, primary screen, luminescence, Shh-LIGHT2 cells, Gli-luciferase; Shh-LIGHT2 Gli-luciferase reporter, 30 h; inhibition, % (test concentration not listed); hit rate 2.1% among 22,000; AID 2313, 2010;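 active = replicate mean of 65% or more; inconclusive = mean lower but half the replicates past it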;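 note: pathway switched on by Shh-conditioned medium diluted 1 in 25 in low serum; 100 nL library stock added to about 40 µL; 0% = median of neutral wells and 100% = positive control level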
PD-1 reverse act = activators reversing PD-1 mediated T-cell inhibition, primary screen, luminescence, primary human CD4 T cells, PD-L1 beads. CellTiter-Glo 96 h. activation, % (no concentration beside the values). 29,000 tested, under 10 active;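 active = replicate mean of 50% or more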;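 note: 0% = median vehicle wells and 100% = positive control; 100 nL library stock added to about 50 µL; numbers are from one replicate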
MITF inhib = inhibitors of MITF, primary screen, MITF inhibitor project, cell-based, luminescence. TRPM1 promoter luciferase, 24 h. hit rate 0.28% among 37,000. inhibition, % (concentration not given with the values);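 active = most replicates at 85% or more, or half of them and the mean; inconclusive = half reach 85% but not the mean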;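 note: human melanocyte line stably carrying TRPM1 promoter luciferase reporter; 0% = vehicle wells and 100% = a positive control; the first replicate is given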
Starred values were filed as active, the others as inactive; ? = inconclusive; nt = no result given.

SMILES | YB-1 expression | Shh pathway inh | PD-1 reverse act | MITF inhib
C[C@@H]1CN([C@@H](C)CO)C(=O)c2cccc(N(C)C)c2O[C@H]1CN(C)S(=O)(=O)c1cn(C)cn1 | 0.043 | -19 | nt | 2
C[C@H](CO)N1C[C@H](C)[C@H](CN(C)Cc2ccc(Oc3ccccc3)cc2)Oc2ccc(NC(=O)Cn3cnnn3)cc2C1=O | -0.013 | nt | 0.3 | -2
C[C@@H]1CN([C@@H](C)CO)C(=O)c2cc(NS(=O)(=O)c3ccccc3)ccc2O[C@H]1CN(C)C(=O)NC1CCCCC1 | 0.2 | 4 | -0.1 | 2
C[C@@H]1CN([C@@H](C)CO)C(=O)c2cccc(NS(=O)(=O)c3cccs3)c2O[C@@H]1CN(C)Cc1ccccc1 | -0.6 | -13 | 1.5 | 0
CC(=O)Nc1ccc(NC(=O)CSc2nncn2C)cc1 | nt | nt | 1.6 | -12
COc1ccccc1NC(=O)C1=C(C)Nc2ncnn2C1c1ccccn1 (stereo not drawn) | nt | nt | 0.2 | 1
C[C@@H]1CCCCO[C@H](CN(C)C(=O)Nc2ccc(F)cc2)[C@@H](C)CN([C@H](C)CO)C(=O)c2cc(NC(=O)CCC(F)(F)F)ccc2O1 | 0.1 | -20 | nt | -3
COc1cccc(S(=O)(=O)NCC(=O)N2CCCCCC2)c1 | nt | nt | 1.2 | -6
COc1cc(-c2coc3cc(O[C@@H]4O[C@H](CO)[C@@H](O)[C@H](O)[C@H]4O)c(OC)c(O)c3c2=O)cc(O)c1OC | 0.12 | 20 | nt | -66
C[C@H](CO)N1C[C@H](C)[C@H](CN(C)S(=O)(=O)c2ccccc2)Oc2ccc(NC(=O)Nc3ccc(C(F)(F)F)cc3)cc2CC1=O | 0.27 | -12 | -5.5 | 30
COC(=O)c1ccccc1NC(=O)C(C)NS(=O)(=O)c1ccc(F)cc1 (stereo not drawn) | nt | nt | -0.2 | 5
COc1ccc(NC(=O)Nc2ccc3c(c2)CC(=O)N([C@@H](C)CO)C[C@@H](C)[C@@H](CN(C)S(=O)(=O)c2c(C)noc2C)O3)cc1 | 0.029 | -10 | nt | -15
C[C@@H]1CN([C@H](C)CO)C(=O)Cc2cc(NS(=O)(=O)c3cn(C)cn3)ccc2O[C@H]1CN(C)S(=O)(=O)c1ccc(Cl)cc1 | -0.3 | 42 | nt | -20
COc1ccc(S(=O)(=O)N(C)C[C@@H]2Oc3ccc(NC(=O)C4CCCCC4)cc3C(=O)N([C@H](C)CO)C[C@@H]2C)cc1 | -0.14 | -8 | -0.7 | -11
O=S(=O)(c1cccc2c(I)cccc12)N1CCCNCC1 | 0.15 | ? | -1.6 | 1
COc1ccc(NC(=O)N(C)C[C@@H]2Oc3ccc(NC(=O)NC(C)C)cc3C(=O)N([C@H](C)CO)C[C@H]2C)cc1 | -0.085 | nt | -1.1 | -4
CCOC(=O)C1(c2csc(N)n2)COC(=O)C1 (stereo not drawn) | 0.23 | -27 | -0.1 | -5
Cc1cc(C(=O)Nc2cccc3c2O[C@@H](CN(C)C(=O)Nc2c(C)noc2C)[C@@H](C)CN([C@@H](C)CO)C3=O)n(C)n1 | -0.41 | -25 | nt | -11
C[C@@H]1CN([C@@H](C)CO)C(=O)c2cc(NS(C)(=O)=O)ccc2O[C@@H]1CN(C)Cc1ccc(C(=O)O)cc1 | 0.22 | nt | 1.3 | -7
C[C@@H]1CCCCO[C@@H](CN(C)S(=O)(=O)c2cccs2)[C@@H](C)CN([C@H](C)CO)C(=O)c2cc(NC(=O)C3CCCCC3)ccc2O1 | 0.4 | ? | 1.8 | 5
O=C(Oc1ccccc1)Oc1ccc2oc(=O)sc2c1 | 0.079 | nt | -2.2 | 3
Cc1noc(C)c1S(=O)(=O)Nc1ccc2c(c1)C(=O)N([C@H](C)CO)C[C@H](C)[C@H](CN(C)C(=O)Nc1ccc(C(F)(F)F)cc1)O2 | -0.42 | nt | 2.0 | -4
CNC[C@H]1OCCCC[C@@H](C)Oc2ccc(NC(=O)CCCN(C)C)cc2C(=O)N([C@H](C)CO)C[C@@H]1C | -0.32 | nt | 0.1 | -20
C[C@@H]1CN([C@@H](C)CO)C(=O)c2cccc(NC(=O)c3ccncc3)c2O[C@@H]1CN(C)Cc1ccc2c(c1)OCO2 | 0.13 | 9 | 2.3 | 1
COc1ccc(S(=O)(=O)N(C)C[C@H]2Oc3c(NC(=O)c4cnccn4)cccc3C(=O)N([C@@H](C)CO)C[C@@H]2C)cc1 | -0.19 | 4 | 5.1 | -21
Cc1ccc(N(C(C)C(=O)O)S(C)(=O)=O)cc1C (stereo not drawn) | nt | nt | 2.5 | -8
C[C@H]1CN([C@@H](C)CO)C(=O)Cc2cc(NS(=O)(=O)c3cccs3)ccc2O[C@H]1CN(C)S(=O)(=O)c1cn(C)cn1 | -0.058 | -50 | 1.2 | -6
O=C(NCc1ccccn1)c1ccccc1O | nt | nt | 2.1 | -115
Cc1cc(OCC(=O)Nc2ccccc2C(=O)NC2CCCCC2)cc(C)c1Cl | nt | nt | 3.4 | -15
COc1ccccc1OCC(=O)Nc1cccc(-c2nc3ccccc3o2)c1 | nt | nt | -0.7 | -72
CC(C)NC(=O)N(C)C[C@@H]1Oc2ccc(NC(=O)Nc3cccc4ccccc34)cc2C(=O)N([C@H](C)CO)C[C@@H]1C | -0.066 | nt | 1.5 | -7
CCOc1ccc(-n2c(SCc3nc(-c4ccc(C)cc4)no3)nnc2-c2ccncc2)cc1 | nt | nt | -4.0 | 26
C[C@@H]1CN([C@H](C)CO)C(=O)Cc2cc(NC(=O)Cc3cn(C)c4ccccc34)ccc2O[C@@H]1CN(C)C(=O)Nc1ccc(C(F)(F)F)cc1 | 0.2 | nt | -0.6 | 29
C[C@@H]1CCCCO[C@@H](CN(C)C(=O)c2ccccc2)[C@@H](C)CN([C@H](C)CO)C(=O)c2cc(NC(=O)Nc3ccc(F)cc3)ccc2O1 | 0.16 | 29 | 0.4 | -13
C[C@@H]1CN([C@H](C)CO)C(=O)c2cc(NS(=O)(=O)c3cccs3)ccc2O[C@@H]1CN(C)Cc1ccc(C(F)(F)F)cc1 | 0.27 | 3 | -0.3 | -2
C[C@@H]1CN([C@@H](C)CO)C(=O)c2cccc(N(C)C)c2O[C@@H]1CN(C)Cc1ccncc1 | -0.15 | 0 | 2.2 | 1
COc1ccc(S(=O)(=O)Nc2cccc3c2O[C@@H](CN(C)C(=O)NC2CCCCC2)[C@@H](C)CN([C@@H](C)CO)C3=O)cc1 | -0.19 | 13 | 0.6 | 8
C[C@@H]1CN([C@@H](C)CO)C(=O)c2cc(NC(=O)Cc3ccccc3)ccc2O[C@@H]1CN(C)CC1CCCCC1 | 0.3 | nt | -0.2 | -2
C[C@@H]1CN([C@@H](C)CO)C(=O)c2cc(NC(=O)Nc3ccc4c(c3)OCO4)ccc2O[C@@H]1CN(C)Cc1ccc(C(F)(F)F)cc1 | -0.007 | nt | 1.6 | 4
COc1cc(NC(=O)C2CC=CCC2C(=O)O)ccc1NC(=O)c1ccccc1 (stereo not drawn) | nt | nt | 0.7 | 0
COc1ccc(/C=N/c2oc(C)c(C)c2C#N)c(OC)c1 | -0.061 | -3 | -0.4 | 5
C[C@H]1CN([C@@H](C)CO)C(=O)c2cccc(NS(=O)(=O)c3cccs3)c2O[C@H]1CN(C)Cc1ccc(Oc2ccccc2)cc1 | -0.36 | 18 | 3.5 | 0
C[C@@H]1CN([C@H](C)CO)C(=O)c2cc(NS(=O)(=O)c3ccccc3)ccc2O[C@@H]1CN(C)Cc1ccc(-c2ccccc2)cc1 | -0.37 | 2 | -0.1 | 12
COc1ccc(CN(C)C[C@H]2Oc3ccc(NC(=O)C4CCCCC4)cc3CC(=O)N([C@H](C)CO)C[C@H]2C)cc1 | 0.25 | nt | nt | -17
Cc1cc(C(=O)Nc2cccc3c2O[C@@H](CN(C)Cc2ccc(Oc4ccccc4)cc2)[C@@H](C)CN([C@@H](C)CO)C3=O)n(C)n1 | 0.6 | -9 | -1.1 | -13
COC(=O)COc1cccc(NC(=O)c2cccc(C)c2)c1 | nt | nt | -2.4 | 2
CCc1cc2c(=O)oc(-c3ccc(Br)cc3)nc2s1 | -0.33 | -32 | 0.7 | -15
C[C@@H]1CN([C@@H](C)CO)C(=O)c2cccc(NC(=O)Nc3ccc4c(c3)OCO4)c2O[C@H]1CN(C)Cc1ccncc1 | -0.045 | -66 | -1.3 | 13
C[C@H]1CN([C@@H](C)CO)C(=O)c2cccc(NC(=O)Nc3ccc4c(c3)OCO4)c2O[C@H]1CN(C)Cc1ccc(Oc2ccccc2)cc1 | -0.0031 | 44 | nt | 2
Cc1noc(C)c1NC(=O)N(C)C[C@@H]1Oc2ccc(NC(=O)Cc3cn(C)c4ccccc34)cc2CC(=O)N([C@H](C)CO)C[C@H]1C | 0.32 | -47 | -1.2 | 6

Sorted by molecular weight (descending): 4 of the compounds above.
SMILES | YB-1 expression | Shh pathway inh | PD-1 reverse act | MITF inhib
Cc1cc(C(=O)Nc2cccc3c2O[C@@H](CN(C)Cc2ccc(Oc4ccccc4)cc2)[C@@H](C)CN([C@@H](C)CO)C3=O)n(C)n1 | 0.6 | -9 | -1.1 | -13
COc1ccc(CN(C)C[C@H]2Oc3ccc(NC(=O)C4CCCCC4)cc3CC(=O)N([C@H](C)CO)C[C@H]2C)cc1 | 0.25 | nt | nt | -17
CCc1cc2c(=O)oc(-c3ccc(Br)cc3)nc2s1 | -0.33 | -32 | 0.7 | -15
COC(=O)COc1cccc(NC(=O)c2cccc(C)c2)c1 | nt | nt | -2.4 | 2

Remaining list, next part
SMILES | YB-1 expression | Shh pathway inh | PD-1 reverse act | MITF inhib
O=C(CCc1nc(-c2ccccc2Cl)no1)Nc1ccccc1[N+](=O)[O-] | nt | nt | 0.9 | -22
C[C@H](CO)N1C[C@H](C)[C@@H](CN(C)Cc2ccc(C(=O)O)cc2)Oc2c(NC(=O)Nc3ccc(F)cc3)cccc2C1=O | -0.16 | nt | nt | 5
C[C@H](CO)N1C[C@H](C)[C@H](CN(C)Cc2ccc(C(=O)Nc3ccccc3N)cc2)Oc2ccc(NC(=O)Cn3cnnn3)cc2CC1=O | -0.39 | nt | -0.5 | 0
CC1=CC(=O)[C@H]2C(C)(C)CCC[C@]2(C)[C@@]1(O)CO | 0.051 | -47 | nt | nt
CCOC(=O)c1c(/N=C/c2ccc(N(C)C)cc2)sc(C)c1C | -0.64 | nt | -0.2 | -10
C[C@H](CO)N1C[C@H](C)[C@H](CN(C)Cc2ccc(C(=O)O)cc2)Oc2ccc(NC(=O)Cc3cn(C)c4ccccc34)cc2C1=O | 0.24 | nt | 1.2 | 5
COC(=O)c1cc(OC)c(OC)cc1NC(=O)c1cc(-c2cccnc2)nc2ccc(Cl)cc12 | nt | nt | -1.2 | 26
C[C@@H]1CN([C@H](C)CO)C(=O)c2cccc(NC(=O)Nc3ccc4c(c3)OCO4)c2O[C@@H]1CN(C)C(=O)NC1CCCCC1 | 0.0051 | 18 | -2.2 | 3
COc1ccc(NC(=O)N(C)C[C@@H]2Oc3c(NS(C)(=O)=O)cccc3C(=O)N([C@@H](C)CO)C[C@H]2C)cc1 | 0.56 | -11 | nt | -8
C[C@@H]1CN([C@@H](C)CO)C(=O)c2cccc(NC(=O)c3cnccn3)c2O[C@@H]1CN(C)Cc1ccc(Oc2ccccc2)cc1 | -0.11 | -50 | -0.5 | -5
CCCn1nnc(NC(=O)COc2ccc(Br)cc2)n1 | nt | nt | 4.7 | -14
C[C@@H]1CN([C@@H](C)CO)C(=O)Cc2cc(NC(=O)Cc3ccccc3)ccc2O[C@@H]1CN(C)S(=O)(=O)c1cccs1 | 0.69 | -9 | -4.2 | 9
COc1ccc(CN(C)C[C@H]2Oc3ccc(NS(=O)(=O)c4ccc(C)cc4)cc3C(=O)N([C@@H](C)CO)C[C@H]2C)cc1 | -0.018 | 29 | 1.2 | 1
C[C@@H]1CN([C@H](C)CO)C(=O)c2cc(N(C)C)ccc2O[C@H]1CN(C)Cc1ccc(Cl)c(Cl)c1 | 0.064 | -47 | -2.9 | 9
CNC[C@@H]1Oc2ccc(NC(=O)C3CCCCC3)cc2CC(=O)N([C@@H](C)CO)C[C@@H]1C | 0.35 | -11 | 2.5 | -11
C[C@@H]1CCCCO[C@H](CN(C)S(=O)(=O)c2cccs2)[C@@H](C)CN([C@H](C)CO)C(=O)c2cc(NC(=O)Nc3cccc4ccccc34)ccc2O1 | 0.043 | 14 | -3.8 | -11
C[C@H]1CN([C@@H](C)CO)C(=O)c2cccc(NC(=O)NC3CCCCC3)c2O[C@H]1CN(C)CC1CCCCC1 | -0.24 | 9 | 0.8 | 10

An excerpt; the hit share may differ from the screen's.
